Screening results from PubChem.
HPGD inh: HPGD (human) dehydrogenase inhibition. purified HPGD, NADH fluorescence kinetic, PGE2 substrate. Potency, µM, inactives show top-dose activity change, negative = inhibition, actives largely listed as inhibitors. 150,000 compounds, 4.3% hits. AID 894; active = well fitted inhibition curve with a large enough effect (not every such curve was filed as active); inconclusive = small, poorly fitted or top-dose-only effect, or another doubt; inactive = no such curve, though single readings can be large or run the other way;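 note: top concentration of the series not given in the record; plate controls included wells without enzyme; inactives centre near -10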
Target sequence (P15428 whole entry, looked up): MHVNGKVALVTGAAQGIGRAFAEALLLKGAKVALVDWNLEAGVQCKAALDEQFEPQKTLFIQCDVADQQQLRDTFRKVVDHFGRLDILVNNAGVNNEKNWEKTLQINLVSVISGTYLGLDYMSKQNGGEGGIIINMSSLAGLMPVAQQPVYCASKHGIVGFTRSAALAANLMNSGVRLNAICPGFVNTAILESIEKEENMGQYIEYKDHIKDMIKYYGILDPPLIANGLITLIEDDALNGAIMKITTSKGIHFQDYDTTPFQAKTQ
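NADH formation kinetics: reaction with 30 uM PGE2 and 1 mM NAD+ (final), 20 nM enzyme, Tris-HCl pH 8 with Tween 20, after 15 min compound preincubation at room temperature. Fluorescence change, last versus first of five reads.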
* hit, by the source's call; ? = inconclusive. % is set by controls: 0 for no effect and ±100 for the full control effect; potency is the fitted concentration of half-maximal effect. A portion of the library; count on the stated rates, not on these rows.

The opening 19 records, ahead of the listing:
SMILES | HPGD inh
O=C(NCCO)NC(=S)c1ccccc1 | -7%
C=CCNC(=O)c1onc(CSc2cccc3ccccc23)c1C(=O)O | ?
Cn1c(=O)[nH]c(=O)c2c1nc(CN1CCOCC1)n2CCc1ccccc1 | -5%
COC(=O)c1ccccc1NC(=O)C1CCN(S(=O)(=O)c2cc(OC)ccc2OC)CC1 | ?
Cc1cc(C2=NNC(=NC3CCCCC3)SC2)c(C)n1-c1c(C)n(C)n(-c2ccccc2)c1=O | -24%
CCN1CCN(S(=O)(=O)c2ccc(Cl)c(C(=O)Nc3nnc(CC(C)C)s3)c2)CC1 | -3%
Cn1c(=O)n(C)c2cc([N+](=O)[O-])c(N3CCN(S(=O)(=O)c4ccc5ccccc5c4)CC3)cc21 | -14%
Cc1ccc2c(c1)C(c1ccccc1)N(C(=O)c1cc3ccccc3oc1=O)CC(=O)N2 (stereo unspecified) | -6%
Cc1sc(NC(=O)CSc2nnc(CCNC(=O)c3cccs3)n2C)nc1-c1ccccc1 | -2%
O=C(CSc1ccc2ccccc2c1)NCc1cccs1 | 7.9µM*
Cc1cc(C)c(C)c(S(=O)(=O)N2CCN(Cc3nc4ccccc4[nH]3)CC2)c1C | -11%
c1coc(-c2nnc(-c3ccc4c(c3)OCO4)o2)c1 | ?
Cc1cccc(Nc2nc(N)c(C#N)c(CC#N)c2C#N)c1 | -17%
Cc1ccc(C2CC(=O)C=C(Nc3ccc(Cl)cc3)C2)cc1 (stereo unspecified) | -19%
O=C(CSc1nc2ccccc2o1)c1ccccc1 | ?
Cc1nnc(-n2ncc(C#N)c2N)c2nn(-c3cccc(Cl)c3)c(C)c12 | -7%
OCc1cccnc1 | -16%
OCc1nnn(-c2cccc(C(F)(F)F)c2)c1CO | -5%
Cc1cccc(NC(=O)CN2C(=O)N/C(=C\c3ccc(N4CCOCC4)cc3)C2=O)c1 | -19%

The whole of this part, previewed entries included:
SMILES | HPGD inh
O=C(NCCO)NC(=S)c1ccccc1 | -7%
C=CCNC(=O)c1onc(CSc2cccc3ccccc23)c1C(=O)O | ?
Cn1c(=O)[nH]c(=O)c2c1nc(CN1CCOCC1)n2CCc1ccccc1 | -5%
COC(=O)c1ccccc1NC(=O)C1CCN(S(=O)(=O)c2cc(OC)ccc2OC)CC1 | ?
Cc1cc(C2=NNC(=NC3CCCCC3)SC2)c(C)n1-c1c(C)n(C)n(-c2ccccc2)c1=O | -24%
CCN1CCN(S(=O)(=O)c2ccc(Cl)c(C(=O)Nc3nnc(CC(C)C)s3)c2)CC1 | -3%
Cn1c(=O)n(C)c2cc([N+](=O)[O-])c(N3CCN(S(=O)(=O)c4ccc5ccccc5c4)CC3)cc21 | -14%
Cc1ccc2c(c1)C(c1ccccc1)N(C(=O)c1cc3ccccc3oc1=O)CC(=O)N2 (stereo unspecified) | -6%
Cc1sc(NC(=O)CSc2nnc(CCNC(=O)c3cccs3)n2C)nc1-c1ccccc1 | -2%
O=C(CSc1ccc2ccccc2c1)NCc1cccs1 | 7.9µM*
Cc1cc(C)c(C)c(S(=O)(=O)N2CCN(Cc3nc4ccccc4[nH]3)CC2)c1C | -11%
c1coc(-c2nnc(-c3ccc4c(c3)OCO4)o2)c1 | ?
Cc1cccc(Nc2nc(N)c(C#N)c(CC#N)c2C#N)c1 | -17%
Cc1ccc(C2CC(=O)C=C(Nc3ccc(Cl)cc3)C2)cc1 (stereo unspecified) | -19%
O=C(CSc1nc2ccccc2o1)c1ccccc1 | ?
Cc1nnc(-n2ncc(C#N)c2N)c2nn(-c3cccc(Cl)c3)c(C)c12 | -7%
OCc1cccnc1 | -16%
OCc1nnn(-c2cccc(C(F)(F)F)c2)c1CO | -5%
Cc1cccc(NC(=O)CN2C(=O)N/C(=C\c3ccc(N4CCOCC4)cc3)C2=O)c1 | -19%
CCCN1C(=O)N(C)C(N(O)C(=O)NC)C1(C)C (stereo unspecified) | 0%
CCOC(=O)c1nnn(-c2nonc2N)c1CS(=O)(=O)c1ccccc1 | 0%
Cc1ccccc1NC(=O)CC1SC(=O)N(c2ccccc2)C1=O (stereo unspecified) | ?
Cc1nn(Cc2c(F)c(F)c(F)c(F)c2F)c(C)c1NC(=O)c1c([N+](=O)[O-])cnn1C | 0%
Cc1cccc(N2C(=O)N(c3ccccc3C)C3CS(=O)(=O)CC32)c1 (stereo unspecified) | -14%
Cc1ccc(OCCOCCn2cnc3ccccc3c2=O)c([N+](=O)[O-])c1 | ?
CC1(C)CC2(CCCN3C(=O)CSC32)CCS1 (stereo unspecified) | -7%
CC(=O)c1c(C)nc(-c2ccc(Cl)cc2)nc1N=CN(C)C | ?
Cc1cc(C)n(-c2cccc3cccnc23)n1 | -17%
O=C(c1ccc(COc2ccc(Cl)cc2)o1)N1CCN(Cc2ccc3c(c2)OCO3)CC1 | -9%
CS(=O)(=O)N1CCN(C(=S)NCc2ccc(F)cc2)CC1 | 0%
O=S1(=O)C=CC(Nc2cccc(Cl)c2)C1 (stereo unspecified) | -1%
Cc1nc2cnc(N3CCN(C)CC3)nc2n(Cc2cccs2)c1=O | ?
CC(c1cccs1)N(C(=O)Nc1ccccc1)C1CCCCC1 (stereo unspecified) | -8%
Cc1cc(N2CCN(C3CCCC3)CC2)n2ncc(-c3ccccc3)c2n1 | ?
O=C(NCc1ccco1)Nc1ccc(Br)cc1Cl | -20%
CCc1ccccc1NC(=O)CSc1nnc(Cn2nnc3ccccc32)n1C | -8%
CCCCNC(=S)Nc1ccccc1F | -21%
Cn1sc(NC(=O)c2ccccc2)nc1=O | -13%
Cc1ccccc1C(=O)NN(C)c1nc2ccccc2nc1C(F)(F)F | -21%
Nc1ncnc2c1ncn2[C@H]1C[C@H](O)[C@@H](COP(=O)(O)O)O1 | -6%
Cc1ccccc1OCc1nc2ccc(S(=O)(=O)N3CCOCC3)cc2[nH]1 | 14µM*
CCn1cc(C(C)NC(=O)COc2ccc(Cl)cc2C)c(C)n1 (stereo unspecified) | -20%
CSc1cc(C)n(-c2ccccc2)c(=S)c1C(C)=O | -14%
CN(CCC#N)C(=O)COC(=O)c1ccc(CNS(=O)(=O)c2ccc(F)c(Cl)c2)cc1 | -4%
Cn1c(OCc2cccnc2)nc2c1c(=O)n(Cc1ccc(Br)cc1)c(=O)n2C | -12%
O=C(Cn1cc2c(n1)CCCC2)NCCCN1CCN(C2CCCCC2)CC1 | -16%
O=S(=O)(c1ccccc1)N1CCN(c2nc(-c3cccs3)nc3ccccc23)CC1 | ?
COc1cc(S(=O)(=O)Nc2c(C)cc(C)cc2C)ccc1Cl | -22%
CN1C(=O)c2cccc(N(C)C)c2C1=O | -13%
CCOc1ccc(C(=O)NC(=S)Nc2ccc(NC(=O)c3ccco3)cc2)cc1[N+](=O)[O-] | -16%

Next structures
SMILES | HPGD inh
O=C(O)C1CC=CCC1C(=O)NC12CC3CC(CC(C3)C1)C2 (stereo unspecified) | 0%
COc1ccc(NC(=O)c2ccccc2NC(=O)c2ccco2)c(OC)c1 | -10%
Cc1ccc(C2CC(=O)c3cnn(-c4nc(C)cc(C)n4)c3C2)cc1 (stereo unspecified) | -9%
CN(C)CCCNc1oc(-c2ccc(Cl)cc2)nc1C#N | ?
CC1(C)Cc2c(sc(NC(=O)c3ccco3)c2C(=O)O)CO1 | -16%
CC1CCCN(CC(O)CN)C1 (stereo unspecified) | -9%
Cn1c(=N)n(CC(=O)O)c2ccccc21 | -8%
COc1ccnc(CSC(N)=Nc2cccc(C(F)(F)F)c2)c1 | -13%
COc1ccccc1N1C(=O)CCC1(C#N)c1ccccc1 (stereo unspecified) | -17%
COC(=O)c1ccc(C2C(C#N)=C(N)Oc3cc(C)n(C)c(=O)c32)cc1 (stereo unspecified) | -12%
Cc1ccccc1OCC(=O)OC1CCN(C)CC1 | -30%
COC(=O)[C@@H](O)CC[C@@H](C)Cc1c(OC)c(OC)c(C)c(OC)c1OC | -6%
O=C(CSc1nnc(-c2ccccn2)n1-c1ccc(Cl)cc1)Nc1ccc2c(c1)OCO2 | -15%
CCOc1ccc(Cl)cc1CSc1ncn[nH]1 | -19%
CCOc1ccc(-c2cc(N)n(S(=O)(=O)c3ccc(OC)c(OC)c3)n2)cc1 | -12%
CC1CCC(NC(=O)Cn2c(=O)[nH]c3ccsc3c2=O)CC1 (stereo unspecified) | -1%
O=C(N1CCOCC1)N1CCN(c2nc(-c3ccc(F)cc3)cs2)CC1 | -10%
CCOc1ccc(S(=O)(=O)c2c(C(=O)c3ccc(C)cc3)cnc3cc4c(cc23)OCCO4)cc1 | ?
Cn1c(=O)c(C(=O)CSc2nncs2)c(N)n(Cc2ccccc2)c1=O | -7%
COC(=O)C1=C(N)N(c2ccccc2C(F)(F)F)C2=C(C(=O)CCC2)C1c1ccc2c(c1)OCO2 (stereo unspecified) | -9%

More structures
structure	HPGD inh
O=C(NCCCn1ccnc1)c1cc([N+](=O)[O-])cc([N+](=O)[O-])c1	-5%
CC1(C)CC(C(CC(=O)O)c2ccccc2)CCO1 (stereo unspecified)	-8%
O=c1c2ccccc2oc2nc3ccn(Cc4ccncc4)c(=O)c3cc12	?
CCOC(=O)N1CCC(n2c(=S)[nH]c3cc(OCC)c(OCC)cc3c2=O)CC1	-19%
CCOC(=O)c1c(CN2CCN(CCO)CC2)n(C)c2cc(Br)c(OC)cc12	-9%
Cc1c(C(=O)Nc2ccc3c(c2)OCCO3)sc2nc(-c3ccccc3)cn12	-11%
CCN(CC)C(=O)CSc1nc2ccccc2c(=O)n1OC(C)C	2%
CC(=O)Nc1cc(C(=O)OC(C(=O)c2ccccc2)c2ccccc2)ccc1C (stereo unspecified)	-23%
Cc1ccc(OCC(=O)NC2CCCC2)c(C)c1	28µM*
COc1cc(CNCc2ccccn2)ccc1OCc1ccc(Cl)cc1	-2%
CC1NC2(C(=O)N(Cc3ccccc3)c3ccccc32)C2C(=O)N(c3ccccc3)C(=O)C12 (stereo unspecified)	-15%
COc1cc(/C=N/NC(=O)C(=O)/C=C2\NC3(CCCC3)Cc3ccccc32)ccc1O	-1%
CCn1c(C)nc2c1C(=O)c1ccccc1C2=O	-20%
Cc1cc(NC(=O)c2cc(-c3ccccn3)nc3ccccc23)no1	-4%
Cc1ccc(N2C(=O)c3ccc(N)cc3C2=O)cc1C	-12%
CCCN(CCC)S(=O)(=O)c1ccc(C(=O)Nc2nnc(-c3cc(OC)cc(OC)c3)o2)cc1	-20%
Cc1ccc([C@@H]2C3COCC=C3C(C#N)=C(N)C2(C#N)C#N)o1 (stereo partly specified)	?
CCCOC(=O)c1c(-c2ccc(C)cc2C)csc1NC(=O)C1C2CCC(O2)C1C(=O)O (stereo unspecified)	22µM*
CCC/C=C(\CCC)C(NS(=O)(=O)c1ccc(Cl)cc1)c1ccccc1 (stereo unspecified)	-8%
COc1ccccc1/C=C/C(=O)c1c2c(c(C)[nH]c1=O)CCCC2	-12%
Brc1ccc(-c2ccccc2)cc1	-10%
Cc1occc1C(=O)Nc1nnc(C(F)(F)F)s1	-16%
COc1ccc(/C=N/OCC(=O)Nc2nc3ccccc3s2)cc1	-18%
CCc1cc2c(=O)c(Oc3ccccc3F)c(C)oc2c(CN(C)C)c1O	?
Nc1nc(CN2CCCCCC2)nc(Nc2ccccc2)n1	-16%
CCn1cc(SCC(=O)Nc2cc(C)on2)c2ccccc21	-6%
COc1ccc(OC)c(CNC(=O)C2CCCN(C(=O)N(C)C)C2)c1 (stereo unspecified)	-7%
CCOC(=O)c1nnc(-c2ccc(C)cc2)nc1Oc1ccc(Cl)cc1Cl	-3%
Cc1cc(C)c[n+](-c2nc3ccccc3nc2[N-]S(=O)(=O)c2ccc(Br)s2)c1	-7%
CNS(=O)(=O)c1cccc(C(=O)Nc2cccc(Cl)c2)c1	-3%
CCNCCCNCCCNCCCNCC	0%
CN(C)CCSc1nc(-c2ccccc2)nc2c1CCC2	-10%
CC12CCC(C(=O)Nc3cccc(NC(=O)C45CCC(C)(C(=O)O4)C5(C)C)n3)(OC1=O)C2(C)C	-1%
CN1CCN(C(=O)c2ccc(N(Cc3ccccc3Cl)S(C)(=O)=O)cc2)CC1	-3%
COCC(C)NCc1ccccc1C (stereo unspecified)	2%
O=C1C=C(c2cccs2)C[C@H](c2ccccc2)[C@H]1n1nnc([N+](=O)[O-])n1	-15%
Cc1ccccc1NC(=O)N1CCCC1C(=O)NCc1cccs1 (stereo unspecified)	-8%
Cc1ccc(NC(=O)C(C)[n+]2ccccc2)cc1[N+](=O)[O-] (stereo unspecified)	-13%
COc1ccc(C2CCCN2C(=O)Nc2ccc(F)cc2)cc1OC (stereo unspecified)	-7%
CN(C)c1ccc(CNC2CC(C)(C)NC(C)(C)C2)cc1	-10%
N#Cc1c(-c2ccccc2)ccn(Cc2cccc(Cl)c2)c1=O	-21%
O=Cc1ccc(C(=O)O)cc1	-10%
O=C(NC1CCCCC1)C(c1ccccc1)N(Cc1ccc2c(c1)OCO2)C(=O)c1cnsn1 (stereo unspecified)	1%
Cc1cccnc1NC(=O)CSc1nnc(Cc2ccccc2)o1	-14%
O=C(NCc1ccco1)c1cc(-c2ccncc2)nc2ccccc12	-6%
COc1cc(C(=O)Sc2ccc(Cl)cc2)cc(OC)c1OC	-5%
Cc1cccc(N=C2NC(=O)CS2)c1C	-26%
Cc1ccc(OCC(=O)NNC(=O)c2cccnc2)cc1	2%
CCCCC(c1nnnn1C1CCCC1)N1CCN(C2CCCCC2)CC1 (stereo unspecified)	1%
CCC(CCC(=O)Nc1cccc(C(=O)O)c1)C(=O)O (stereo unspecified)	-15%
O=C(C[n+]1cc(-c2ccc(F)cc2)n2c1CCC2)Nc1nc(-c2ccc(F)cc2)cs1	-1%
O=C(Nc1cccc2cccnc12)C1CCCC1	-10%
COc1cccc(Cn2cnc3c(NS(=O)(=O)c4ccc(Cl)cc4)c(C)c(C)cc32)c1	-6%
CCC(C(=O)N1CCN(c2cccc(Cl)c2)CC1)c1ccccc1 (stereo unspecified)	-10%
